# HCMV NEC inh: inhibitors of HCMV UL50-UL53 interaction, biochemical, HTRF; 190,000 compounds, 0.15% hits; HCMV UL50-UL53 nuclear egress complex (human cytomegalovirus); normalized percent inhibition; inhibition, % (no concentration beside the values);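 active means both replicates at 50% or more, plus weaker picks with an unusually low signal ratio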;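 further: stock transfer was 100 nL into about 20 µL; 0% = negative control wells and 100% = wells with untagged competitor protein; inactives centre near -12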
# GIV Gai3 FP: inhibitors of GIV peptide binding to Galpha-i3, primary screen, biochemical, fluorescence polarization, FITC-GIV GBA peptide, rat Galphai3. 90 min; hits give low values; scaled: aluminum fluoride 0%, vehicle 100%. percent of control (FP), % (no concentration beside the values). 210,000 compounds, 0.42% hits. AID 1224905, 2016;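 active means replicate mean at 85% of control or lower, very high polarization wells dropped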;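 further: wells of about 15 µL received 100 nL stock; the first replicate is given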
# Target sequence (P08753 whole entry, looked up): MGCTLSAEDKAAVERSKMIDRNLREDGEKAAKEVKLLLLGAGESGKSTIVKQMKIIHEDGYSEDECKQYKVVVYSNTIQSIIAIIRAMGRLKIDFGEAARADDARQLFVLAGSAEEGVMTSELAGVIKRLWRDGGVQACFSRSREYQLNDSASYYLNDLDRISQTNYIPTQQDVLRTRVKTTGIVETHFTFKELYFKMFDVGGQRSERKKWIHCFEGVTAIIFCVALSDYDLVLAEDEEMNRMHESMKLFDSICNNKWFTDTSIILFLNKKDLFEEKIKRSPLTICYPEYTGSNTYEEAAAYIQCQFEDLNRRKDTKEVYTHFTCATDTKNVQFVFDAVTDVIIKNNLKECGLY
# Sa growth 42C: S. aureus growth inhibition at 42 and 30 °C, primary screen, LtaS inhibitor project, RN4220, two temperatures; AID 720641, 2013; relative growth, % (concentration not given with the values); OD600, 20 h, 42 °C; hits give low values; 170,000 compounds, 0.53% hits;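 active means growth at 42 °C up to 50% and 20 or more points under that at 30 °C, or under 10% at both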;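 further: 300 nL library stock went into each well; scaled to the means of positive and negative controls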
# Sa growth 42C second temp: further read-out of Sa growth 42C, marked with its call; relative growth, %; measured here: growth at 30 °C;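 optical density after 20 h as mean of two plates; 100% = untreated growth and lower means inhibition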
# The depositor's hits bear a star; · = no result given; & = joins results of further samples. Rows are unselected (roughly 0.85% active in at least one column).
SMILES,HCMV NEC inh,GIV Gai3 FP,Sa growth 42C,Sa growth 42C second temp
COCCNC(=O)N1Cc2c(C)nn(-c3ccccc3)c2-n2cccc2C1c1cccc(C)c1 (stereo not given),-9,99,·,·
CC(C)(C)NC(=O)Cn1ccc(C(F)(F)F)n1,-29,99,97,88
C#CCOc1cccc2oc(CCC)cc(=O)c12,-40,104,97,87
CCOC(=O)c1c(-c2ccccc2)oc2ccc(OCc3cccc(Br)c3)cc12,-57,110,91,85
O=C(OCc1cc(=O)n2cc(Br)ccc2n1)c1cc(-c2ccco2)nc2ccccc12,-29,·,67,60
COc1ccc(S(=O)(=O)NCc2ccc(C(=O)NCc3ccccc3)cc2)cc1,-2,101,114,91
CCn1c(-c2ccc(OC)cc2)csc1=Nc1ccc(C(=O)O)cc1,-26,·,102,93
CCC(Nc1n[nH]c(=O)[nH]c1=O)C(=O)OC (stereo not given),·,109,86,92
c1ccc(OCCn2c(-c3cccs3)nc3ccccc32)cc1,-1,101,85,90
COc1cc(OC)cc(C(=O)OCC(=O)NC2CC2)c1,-6,·,80,88
NCC(O)COCc1ccccc1 (stereo not given),-20,105,93,96
C=CCOc1ccccc1CNc1ncn[nH]1,-7,·,109,89
CC1(C)C(=O)N(CC(=O)NC2CCCC2)c2ccc(S(=O)(=O)N3CCCCC3)cc21,-25,106,·,·
CCc1ccc(NS(=O)(=O)c2ccc3[nH]cc(C(=O)NC4CCCCC4)c(=O)c3c2)cc1,-3,99,120,77
COc1cccc(Nc2nc3ccc(C)cc3nc2-n2nc(C)cc2C)c1,-4,105,92,89
c1ccc(-c2cc3c(N4CCN(c5ccccc5)CC4)nccn3n2)cc1,-12,103,·,·
CCSc1ncc(Cl)c(C(=O)Nc2nnc(CC)s2)n1,-26,98,93,93
Cc1c(C(=O)OC(C)C)sc(NC(=O)C2c3ccccc3Oc3ccccc32)c1C(=O)OC(C)C,2,104,96,91
CSc1cccc(Nc2cc(C(=O)NCCc3ccc(Cl)cc3)c3ccccc3n2)c1,13,108,124,81
Cc1ccc(-c2nc3cc(C(C)C)ccc3o2)cc1NC(=O)c1cc2ccccc2o1,-6,102,92,90
c1ccc(CSc2ncnc3sccc23)cc1,-3,·,104,92
COC(=O)c1cc(NC2c3ncccc3C(=O)N2c2ccc(OC)cc2)cc(C(=O)OC)c1 (stereo not given),4&-16,104&110,99,94
COc1cccc(CC(=O)Nc2ccc(-c3nc4ccccc4s3)cc2)c1,·,99,110,99
COC(=O)c1scc(-c2ccc(C)cc2)c1S(=O)(=O)Nc1c(C)cc(C)cc1C,·,102,111,105
Cc1ccc2c(c1)N(CC(=O)NCCCN1CCOCC1)C(=O)CO2,-7,99,·,·
O=C1NC(=O)C(C2(O)C(=O)Nc3c(Cl)cc(Cl)cc32)C(=O)N1 (stereo not given),65,·,66,37
CCN(CC)c1ccc(NC(=O)c2sc3nc(-c4ccccc4)cn3c2C)cc1,·,106,105,105
Cc1cc(C)cc(NC(=O)C(Cc2ccccc2)NS(=O)(=O)c2ccc3c(c2)c(=O)n(C)c(=O)n3C)c1 (stereo not given),4,103,107,87
Cn1c(=O)n(C)c2cc(S(=O)(=O)NCCC(=O)O)ccc21,·,98,118,82
O=C(CSc1ccc(Cl)cc1)NC(=O)NC1CCCC1,-37,·,86,83
Cc1c(C(=O)N2CCCCC2)oc2ccc3c(c12)C(O)CC1(CCCCC1)O3 (stereo not given),-2,101,·,·
Cc1nc(-c2cc3ccccc3nc2N2CCN(C(=O)Cc3ccccc3)CC2)no1,-32,101,·,·
COC(=O)CC1C(=O)NCCN1c1ncnc2sccc12 (stereo not given),4,·,92,94
N#CC(C(=O)Nc1ccccc1Cl)=C1CCCC1,0,99,99,94
CCc1ccc(-n2c(-c3ccc(Cl)cc3)cn3c4c(=O)n(C)c(=O)n(C)c4nc23)cc1,46,104,·,·
Cc1ccc(S(=O)(=O)N2CCc3ccccc3C2CC(=O)OCC(N)=O)cc1 (stereo not given),-25,·,83,87
O=C(CSc1nc(-c2cccs2)nc2cc(=O)[nH]n12)Nc1cccc(C(F)(F)F)c1,·,100,32,25
CC(C)(C)C(=O)C[n+]1ccccc1,·,108,94,77
CCC1CC(c2nc3ccccc3s2)=C(N)O1 (stereo not given),-20,·,115,92
CCCSCCCNC(=O)Cn1cnc2oc(C)c(C)c2c1=O,1,109,·,·

# The list goes on (6 carried over from the part before).
SMILES,HCMV NEC inh,GIV Gai3 FP,Sa growth 42C,Sa growth 42C second temp
CCc1ccc(-n2c(-c3ccc(Cl)cc3)cn3c4c(=O)n(C)c(=O)n(C)c4nc23)cc1,46,104,·,·
Cc1ccc(S(=O)(=O)N2CCc3ccccc3C2CC(=O)OCC(N)=O)cc1 (stereo not given),-25,·,83,87
O=C(CSc1nc(-c2cccs2)nc2cc(=O)[nH]n12)Nc1cccc(C(F)(F)F)c1,·,100,32,25
CC(C)(C)C(=O)C[n+]1ccccc1,·,108,94,77
CCC1CC(c2nc3ccccc3s2)=C(N)O1 (stereo not given),-20,·,115,92
CCCSCCCNC(=O)Cn1cnc2oc(C)c(C)c2c1=O,1,109,·,·
Fc1ccc(N2CCN(CC3CCCCC3)CC2)cc1,5,99,90,119
O=C(C1CCCN(c2ccc3cc(S(=O)(=O)N4CCCCC4)ccc3n2)C1)N1CCOCC1 (stereo not given),-32,108,·,·
Cn1c(SCCC#N)nnc1-c1cccc(Cl)c1,-8,104,114,78
CCOCCc1nnc(NC(=O)c2cccs2)s1,1,104,108,100
CCOC(=O)N1CCc2c(sc(NCc3sccc3C)c2C(=O)Nc2cc(OC)ccc2OC)C1,·,103,93,72
COc1ccc(NC(=O)Cn2c(=O)n(-c3cccc(C(F)(F)F)c3)c(=O)c3sccc32)cc1,-2,104,99,87
Cc1c(CC2C(=O)Nc3ccccc32)oc2ccc(F)cc12 (stereo not given),-3,103,·,·
Cc1[nH]c2ccccc2c1/C=C/c1nc2ccccc2c(=O)n1CCc1ccccc1,17,125,·,·
O=C(NCC(c1cccs1)N1CCOCC1)c1ccc(NS(=O)(=O)c2cccs2)cc1 (stereo not given),1,·,108,95
Cc1ccccc1CNC(=O)c1sc2ncnc(N(C)C3CCCCC3)c2c1C,·,98,139,86
C=CCn1c(C)cc(C(=O)CSc2nc(C)cc(C(F)(F)F)c2C#N)c1C,-33,·,90,53
COc1ccc(S(=O)(=O)N(Cc2cc3c(C)cc(C)cc3[nH]c2=O)CC2COCCO2)cc1 (stereo not given),-29,103,97,86
CCCCN(CC)C(=O)c1cc2cccnc2n(Cc2ccc(F)cc2)c1=O,-20,104,·,·
Cc1ccc(NC(=O)CN2C(=O)S/C(=C\c3cccc(O)c3)C2=O)cc1,1,110,110,83
COc1ccc(-c2cc3c(=O)n(Cc4nc(-c5ccccc5Br)no4)ncn3n2)cc1,-32,99,·,·
CCn1cc(C2=NC(C(C)C)CO2)c2ccccc21 (stereo not given),·,105,68,79
CC(C)(C#N)NC1CC1,5,·,96,99
O=C(CN(c1ccc2c(c1)OCCO2)S(=O)(=O)c1ccccc1)Nc1ccc(S(=O)(=O)N2CCOCC2)cc1,-16,105,113,98
CN(CCNc1ccc2nnc(-c3ccccc3)n2n1)C1CCCCC1,7,107,90,90
COc1cc(NC(=O)Cn2cnc(S(=O)(=O)N3CCCC3)c2)cc(OC)c1OC,·,104,69,89
CC(C)Oc1nnnn1-c1ccccc1,-28,104,89,80
CC(C)C(=O)N1N=C(c2ccc(NS(C)(=O)=O)cc2)CC1c1ccccc1 (stereo not given),·,113,99,77
CCSc1nnc(-c2cccc(NC(C)=O)c2)o1,-33,100,91,79
CCOc1ccc(S(=O)(=O)c2cn(Cc3ccccc3C)c3ccc(OC)cc3c2=O)cc1,6,113,223,79
Cc1ccc2onc(CNC(=O)Nc3ccccc3N3CCN(C)CC3)c2c1,-24,101,95,75
Nc1ccc(S(=O)(=O)Nc2ccc(Cl)nn2)cc1,-33&-7,·,19,25
Cc1ccc(C(=O)NCc2ccco2)c(C)c1,-10,·,91,90
Cc1ccc(-c2noc(CCC(=O)NC3CCCc4ccccc43)n2)cc1 (stereo not given),-1,106,118,95
CCN(C(=O)Cn1c(=O)oc2cc(S(=O)(=O)N3CCCCCC3)ccc21)c1ccccc1,1,104,100,95
Cc1cc(-c2ccc(C)c(S(=O)(=O)Nc3ccccc3C(F)(F)F)c2)on1,·,113,47,27
CS(=O)(=O)c1ccc(Cl)c(NC(=O)c2ccc(C#N)cc2)c1,-40,·,97,93
CC(=O)NCc1nnc2c3ccccc3c(-c3ccccc3)nn12,-24,104,94,98
CC1CN(C(=S)NCCc2ccccc2)CC(C)O1 (stereo not given),2,106,95,99
O=C(CSc1ccc(Br)cc1)c1cc2ccccc2o1,-22,·,90,91
O=C1c2ccc(Br)cc2C(=O)N1c1cc(Cl)ccc1O,-3,117,105,81
CC(=O)n1c(C)c(-c2ccccc2)c2cc(Cl)ccc21,·,97,96,85
CC(=O)Nn1c(C)nc2ccccc2c1=O,-30,106,106,88
COc1ccc(C)cc1NC(=O)c1cc(S(=O)(=O)N2CCC(C)CC2)ccc1F,·,104,97,86
Cc1ccc(Sc2c(C)nn(C(=O)COc3ccc(F)cc3)c2C)cc1,2,97,87,98
O=C(/C=C/c1ccco1)OC(C(=O)c1ccccc1)C(=O)c1ccccc1,-24,·,82,91
CC(C)(C)C1CCc2nc(N)sc2C1 (stereo not given),-24,·,99,59
CC(=O)Nc1ccc2c(c1)C1C=CCC1C(c1ccc(Cl)cc1Cl)N2 (stereo not given),-22,103,·,·
CC1CCN(S(=O)(=O)c2cc3c4c(c2)C(C)C(=O)N4CCC3)CC1 (stereo not given),·,101,130,82
O=C(CCc1nc2sc3c(c2c(=O)[nH]1)CCCCC3)NCCC1=CCCCC1,-24,104,·,·
NC(=O)COc1ncnc2ccc(Br)cc12,-29,·,92,89
CCN(CC)c1nc2[nH]c(=S)n(C(C)C)c(=O)c2s1,9,99,·,·
C=CCSc1nnc2c(n1)OC(c1cc3c(cc1Br)OCO3)N(C(C)=O)c1ccccc1-2 (stereo not given),-16,105,93,83
CCOC(=O)c1ccccc1NC(=O)c1nn(-c2ccccc2OC)c(=O)c2ccccc12,8,·,109,96
CCSc1nnc(NC(=O)c2ccc(C)c(S(=O)(=O)N(CC)CC)c2)s1,-10,·,108,78
CCC(=O)n1nc(C)c(S(=O)(=O)N2CCCC2)c1C,-29,103,·,·
O=C(O)CN(CC(=O)O)C(=O)/C=C/c1ccccc1,-15,·,85,88
CCOC(=O)N1CCC(n2c(SCC(=O)c3ccc(Cl)cc3)nc3ccccc3c2=O)CC1,4,103,130,100
CC(=O)Nc1ccc(S(=O)(=O)NCCCn2c(-c3ccc(C)cc3)nc3cccnc32)cc1,-17,107,·,·
Cc1ccc(Nc2ccccc2)nn1,1,98,103,90
CCc1c(C(=O)c2ccc(OC)cc2)oc2c(C)c3oc(=O)cc(C)c3cc12,·,98,103,91
Cc1n[nH]c(C)c1N=Nc1ccc(Br)cc1,-28,·,94,84
CCOc1ccc(C(=O)NCCn2c(-c3ccncc3)nc3ccccc32)cc1,-38,104,·,·
Cc1cc(C)c(C#N)c(N2CCC(C(N)=O)CC2)n1,4,106,107,87
Cc1ccc(-c2nc(CSc3nc(-c4ccccc4)cc(=O)[nH]3)c(C)o2)cc1,14,103,·,·
CCCNC(=O)Cc1ncn[nH]1,-10,·,106,80
# (list continues)
SMILES,HCMV NEC inh,GIV Gai3 FP,Sa growth 42C,Sa growth 42C second temp
FC(F)(F)c1cccc(-c2nc3ccccn3n2)c1,-3,104,87,97
O=C(COc1ccc(F)cc1)Nc1ccccc1OCc1cc(=O)n2ccccc2n1,·,107,85,91
COc1cc(-c2nc3ccccc3c(=O)n2NC(=O)c2ccc([N+](=O)[O-])cc2Cl)cc(OC)c1OC,-26,110,·,·
Cc1cc(=O)[nH]c(NNC(=S)Nc2ccc(S(=O)(=O)N3CCOCC3)cc2)n1,-27,·,96,90
COC(=O)c1ccc(Nc2c(C)c(C)nc3ncnn23)cc1,4,97,·,·
CCc1nc2ccccc2c(C(=O)OCC(N)=O)c1C,-29,·,136,85
O=C(Nc1cccc(Cl)c1)N1CCC(CN2CCOCC2)CC1,·,102,94,94
Cn1c(=O)[nH]c(=O)c2c1nc(NCCO)n2CC(O)COc1ccccc1 (stereo not given),9,104,101,104
Cc1sc(CO)c(Sc2ccccc2)c1C(=O)O,0,103,103,91
CC(C)(C)C(=O)COC(=O)c1cc(Cl)cc(Cl)c1,-22,·,92,86

# One compound at a time, as listed above. Order of screens: HCMV NEC inh, GIV Gai3 FP, Sa growth 42C, Sa growth 42C second temp
# Cc1sc(CO)c(Sc2ccccc2)c1C(=O)O as listed: 0, 103, 103, 91
# Cn1c(=O)[nH]c(=O)c2c1nc(NCCO)n2CC(O)COc1ccccc1 (stereo not given) as listed: 9, 104, 101, 104
# COc1cc(-c2nc3ccccc3c(=O)n2NC(=O)c2ccc([N+](=O)[O-])cc2Cl)cc(OC)c1OC as listed: -26, 110, ·, ·
# CCc1nc2ccccc2c(C(=O)OCC(N)=O)c1C as listed: -29, ·, 136, 85

# Screens from PubChem.
